# Menin MLL FP FL: menin-MLL binding inhibition, fluorescein peptide; AID 1766; Fluorescence polarization, fluorescein-MLL peptide displacement from menin; FP activity change, % at 61.4 µM; 290,000 tested, under 10 active; inconclusive = falling polarisation curve, or a change in total fluorescence; inactive = total fluorescence flat and polarisation flat or rising; no compound was filed as active; the % refers to the polarisation; negative = inhibition;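 further: % of control where 0% means no effect; inhibitors lower the polarisation; unlabelled MLL peptide was the positive control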
# gsp agonist: activates gsp, the McCune-Albright syndrome mutation; Potency, µM (titrated, usually from 76.9 µM), for inactives: top-dose activation (cAMP increase), most hits filed as activators; gsp mutant cells, cAMP HTRF, 30 min; control for the full effect not named in the record; 340,000 compounds, 0.13% hits; active = well fitted activation curve with a large enough effect; inconclusive = small, poorly fitted or top-dose-only effect, or another doubt; inactive = no such curve, though single readings can be large or run the other way; cell line not stated here;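 further: phosphodiesterase inhibitor Ro 20-1724 added with compounds to block cAMP breakdown; potency means the concentration at half of the fitted maximal effect; nearly all actives have a fitted effect of over 60% in size; about a fifth of the inactives were tested at one dose only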
#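 Cells stably selected in G418 were plated at 2000/well, grown 16-24 hr, then given compounds in DMSO with the PDE inhibitor […] (300 uM solution added) for 30 min at 37C; cAMP was read by HTRF.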
# ClpP mod: qHTS Assay for Activators of ClpP. ATP-dependent Clp protease proteolytic subunit (Bacillus subtilis (strain 168)), P80244. purified B. subtilis ClpP, FRET peptide cleavage, 20 min. Potency, µM (titrated, usually from 57.5 µM), without a hit: at the top dose activity change, negative = active. 340,000 compounds, 1.9% hits; active = well fitted falling curve with a large enough effect; inconclusive = small, poorly fitted or top-dose-only effect; inactive = no such curve, though single readings can be large or run the other way; further: potency means the concentration at half of the fitted maximal effect; the source files actives as falling curves though it sought activators and does not explain the sign; nearly all actives have a fitted effect of over 65% in size; many hits overshoot -100%
# Target sequence (P80244 whole entry, looked up): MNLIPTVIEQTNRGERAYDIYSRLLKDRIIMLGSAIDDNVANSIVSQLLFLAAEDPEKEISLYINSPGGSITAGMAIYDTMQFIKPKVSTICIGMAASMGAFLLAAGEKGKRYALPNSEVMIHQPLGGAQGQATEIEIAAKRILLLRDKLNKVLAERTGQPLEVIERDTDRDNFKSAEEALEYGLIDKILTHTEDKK
#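 ClpP 10 microg/mL final, pH 8 Tris/KCl buffer with BSA, glycerol, Tween-20; compound pinned in; FRET-FV substrate; RT 20 min; Ex320/Em430; ΔFRET vs ADEP 5.8 microM, DMSO, no enzyme.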
# TRPML1 agonist: human mucolipin-1 channel agonism | Q9GZU1 | TRPML1-expressing cells, Ca2+ dye fluorescence, FDSS; host cell line not named in the record; reference of the full effect not given here | activation, % (no concentration beside the values) | 410,000 compounds, 0.12% hits; in the data active = activation above about 50%; inconclusive = about 30% to 50%; inactive = below about 30%; further: 0% is about no effect; the text of the record puts the active cut at 80%
# Target sequence (Q9GZU1 whole entry, looked up): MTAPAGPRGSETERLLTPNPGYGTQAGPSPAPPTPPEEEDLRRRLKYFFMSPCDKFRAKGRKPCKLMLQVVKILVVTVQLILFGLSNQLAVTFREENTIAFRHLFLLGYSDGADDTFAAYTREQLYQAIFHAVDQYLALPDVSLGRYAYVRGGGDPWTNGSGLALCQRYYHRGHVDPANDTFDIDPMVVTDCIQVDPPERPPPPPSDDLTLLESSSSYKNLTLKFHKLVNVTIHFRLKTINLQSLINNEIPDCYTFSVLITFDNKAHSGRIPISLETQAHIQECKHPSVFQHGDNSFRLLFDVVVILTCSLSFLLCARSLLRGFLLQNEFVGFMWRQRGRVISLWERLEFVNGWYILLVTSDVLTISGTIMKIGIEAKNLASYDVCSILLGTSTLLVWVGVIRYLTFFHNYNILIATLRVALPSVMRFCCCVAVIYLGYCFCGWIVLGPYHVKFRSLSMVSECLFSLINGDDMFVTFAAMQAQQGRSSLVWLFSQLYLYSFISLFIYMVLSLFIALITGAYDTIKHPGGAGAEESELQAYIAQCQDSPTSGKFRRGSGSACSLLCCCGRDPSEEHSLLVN
#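 Agonist activity was taken from a 110 s kinetic Ca2+ dye read on the FDSS after pinning compounds onto TRPML1-DL cells. The cells were seeded at 1,500/well with Tet inducer, incubated about 16 h, then dye-loaded at room temperature.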
# gsp antag: antagonists of gsp mutant (McCune-Albright syndrome) | gsp-mutant cells, cAMP HTRF, 30 min; control for the full effect not named in the record | Potency, µM (top dose mostly 76.9 µM), without a hit: at the highest dose activity change, negative = inhibition, hits mostly inhibitors | 340,000 compounds, 0.4% hits | AID 624288; active = falling curve of any shape with a large fitted effect; inconclusive = falling curve, mostly with a smaller effect; inactive = flat or rising curve; cell line not stated here;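 further: intracellular cAMP measured with PDE inhibitor Ro 20-1724 present during compound exposure; potency means the concentration at half of the fitted maximal effect; on the % scale 0 is the no-effect control and ±100 the full control effect; nearly all actives have a fitted effect of over 65% in size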
#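 HTRF cAMP read-out (cAMP-d2 plus anti-cAMP antibody-K in lysis buffer, 30 min RT). Before lysis, cells are exposed to compounds with […] for 30 min at 37C in DPBS containing Ca/Mg, BSA and Tween 20.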
# TRPML1 blocker: blocks the human TRPML1 channel. Q9GZU1. TRPML1-inducible cells, Ca2+ dye fluorescence, FDSS; hits give low values; inhibition of EC80 agonist-evoked calcium signal. activity change, negative = inhibition, % (no concentration beside the values). 390,000 compounds, 0.02% hits; in the data active means activity change below about -50%; inconclusive means about -30% to -50%; inactive means above about -30%;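 further: stimulus is agonist 54-4 at its EC80 concentration; on the % scale 0 is the no-effect control and ±100 the full control effect; compound concentration not given in the record; the text of the record puts the active cut at -80%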
#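 TRPML1-DL cells, Tet-induced overnight (~16 h, 37 °C) at 1,500 cells/well, were loaded with Ca8 no-wash dye plus quencher for 45-90 min at room temperature. Compounds were pinned during FDSS kinetic reading; agonist 54-4 at EC80 (4 uM final) then added.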
# * marks the source's active call; other numbers are inactive results; ? = inconclusive; · = no result given; [ ] = remark or other dose. Random draw from the library. Share with any hit: about 2.1%.
compound,Menin MLL FP FL,gsp agonist,ClpP mod,TRPML1 agonist,gsp antag,TRPML1 blocker
Cc1cccc(S(=O)(=O)Nc2cc(Cl)ccc2N2CCOCC2)c1,·,-16.9%,·,72.0*,-12.8%,-16.2
CCOC(=O)C1C(=O)C(=O)N(C2CCCCC2)C1C(=O)OCC (configuration not stated),·,7.5%,·,-0.7,7.7%,-6.9
COc1ccc2cc(C3CC(c4ccco4)=NN3C(=O)CCC(=O)O)c(Cl)nc2c1 (configuration not stated),-0.1,6.4%,?,-0.6,-15.3%,-10.6
CC(C)CN(C(=O)CSc1nnc(-c2cccs2)n1C1CC1)C1CCS(=O)(=O)C1 (configuration not stated),·,-26.4%,-16.8%,0.2,·,-3.8
COc1ccc(N2CCN(C(=O)CCCn3c(=O)[nH]c4cc(Cl)ccc4c3=O)CC2)cc1,1.2,-2.5%,-4.7%,1.7,-6.6%,1.9
O=C(c1ccco1)N1CCN(C(=O)c2ccc(COc3ccc4c(c3)CCC4)o2)CC1,-2.3,-23.1%,1.7%,1.8,11.3%,-3.2
Cc1ncc(CN2CCCC(C(=O)Nc3ccc(-c4cccc(F)c4)cc3)C2)s1 (configuration not stated),·,0.1%,-11.4%,0.8,-24.8%,-21.6
O=C(O)CCCCCN1C(=O)/C(=C\c2cn(-c3ccccc3)nc2-c2cccs2)SC1=S,?,-48.6%[inhibitor],0.3%,1.2,35.5µM*,4.6
C=CCC(=O)OCCCCCCOc1ccc(C(=O)O)cc1,-1.2,-1.6%,-2.4%,2.6,-15.6%,-1.6
FC(F)(F)c1ccc(N=Cc2sc(N3CCOCC3)nc2-c2ccccc2)cc1,-4.8,?,·,-0.7,7.9%,-11.0
COc1ccc(-n2ncc3c(NC4CCCC4)ncnc32)cc1,·,·,3.9%,1.1,·,-15.2
COC(=O)c1cccc(NC(=O)c2cc3sccc3n2C)c1,1.8,15.5%,-6.0%,1.9,-33.2%,-13.3
Cc1ccc(C(=O)Nc2nnc(S(=O)(=O)Nc3ccccc3C)s2)cc1C,0.0,-40.1%[inhibitor],-2.3%,1.9,-13.1%,3.7
O=C(NCc1ccccc1)c1ccc2c(=O)[nH]c3c(C(=O)NCC4CCCO4)sc(=S)n3c2c1 (configuration not stated),16.0,4.5%[15.4 µM],·,4.2,?,-1.0
C[C@H]1CN([C@@H](C)CO)C(=O)CCCn2cc(nn2)CO[C@@H]1CN(C)S(=O)(=O)c1ccc(C#N)cc1,·,7.4%,-1.1%,-0.1,·,-8.3
Cc1nnc(SCC(=O)c2c(N)n(C)c(=O)n(C)c2=O)n1Cc1ccccc1,2.0,?,1.8%,-0.2,1.3%,22.8
O=C(NC(=S)Nc1ccc(N2CCOCC2)cc1)c1cncc(Br)c1,2.6,-9.3%,0.9%,-0.5,-4.9%,4.2
CCOC(=O)c1cc2c(=O)n3ccccc3nc2n(Cc2ccco2)c1=NC(=O)c1ccccc1Br,·,·,4.1%,4.8,·,32.1
CC(C)CC(=O)c1c[nH]c(C(=O)NCCCn2ccnc2)c1,3.2,-15.0%,-0.7%,-0.2,8.2%,7.8
C=CCSc1nc(N)c(C(=O)Nc2ccccc2)cc1C#N,1.6,15.4%,28.1%,0.6,5.2%,-8.4
O=C(c1ccc(Cl)c(S(=O)(=O)N2CCOCC2)c1)N1CCN(Cc2ccccc2)CC1,1.2,-34.0%[inhibitor],0.0%,-1.1,-6.9%,9.3
Cc1ccc(S(=O)(=O)N(CC(=O)N2CCCC2)C2CCCCC2)cc1,-0.3,8.3%,0.2%,1.2,6.3%,-2.1
O=C(N/N=C/c1cccc(OC(=O)c2ccccc2Cl)c1)c1cccnc1,-0.5,20.8%[15.4 µM],-0.8%,1.0,-3.1%,-23.5
O=C(c1cc2c(s1)-c1ccccc1OC2)N1CCCC1,2.2,-7.2%,4.1%,2.5,?,11.0
O=C(Oc1ccc2ccc(OC(=O)N3CCCCCC3)cc2c1)N1CCCCCC1,1.8,?,3.4%,3.3,-29.8%,3.7
Cc1cc(NC2C3CC4CC(C3)CC2C4)n2nnnc2n1 (configuration not stated),-2.0,2.0%,-0.6%,-0.2,12.6%,8.3
COc1ccccc1N1CCN(CC(=O)Nc2ccc(C)c(F)c2)CC1,-3.2,9.4%,-4.0%,1.6,0.9%[15.4 µM],-15.8
Cc1ccc(/C=N/NC(=O)Cn2cnc3c2c(=O)n(C)c(=O)n3C)s1,2.8,?,-22.0%,1.0,19.9%,20.6
O=C(C[n+]1ccccc1)N/N=C/c1ccc(Cl)cc1,·,-6.0%,-1.0%,4.0,7.5%,-2.2
COc1cc(SC)ccc1C(=O)NCCCn1ccnc1,3.5,6.4%[15.4 µM],-1.1%,0.5,7.2%,57.7
Cc1nc(C)n(CC(C)C(=O)N2CCN(S(=O)(=O)c3ccc(Cl)cc3)CC2)n1 (configuration not stated),0.3,-23.8%,·,0.6,5.1%,-10.5
CCOC(=O)c1cc(C)sc1NC(=S)Nc1ccccc1,2.0,?,-1.3%,-0.5,-9.5%,-15.9
COc1ccccc1CCNS(=O)(=O)c1cn(C)nc1C,-4.0,-14.0%,-0.5%,1.3,11.1%,23.4
CN(C)S(=O)(=O)c1cccc(-c2nnc(SCCNCCO)n2-c2ccc(F)cc2)c1,1.8,2.0%,0.5%,0.8,-6.6%,2.4
CCN(CC)S(=O)(=O)c1cccc(C(=O)N[C@H](C(=O)OCC(=O)NC(=O)NC)C(C)C)c1,3.7,-11.8%,0.3%,-0.2,5.8%,4.6
Clc1ccc(-[n+]2c(-c3cccc(Br)c3)[nH]c3nc4ccccc4nc32)cc1,-0.4,10.6%[15.4 µM],·,2.4,?,25.2
CCCCOc1ccc(C(=S)N2CCC(C(N)=O)CC2)cc1,-1.8,-23.4%,·,-0.5,7.6%,13.5
N#Cc1ccc(OCC(=O)NC(=O)NC2CCS(=O)(=O)C2)cc1 (configuration not stated),·,?,0.6%,2.0,7.1%,-12.4
Cc1onc(-c2ccccc2)c1C(=O)N1CCCN(C(=O)c2c(-c3ccccc3)noc2C)CC1,1.3,-67.4%[inhibitor],-1.8%,0.0,-15.4%,-2.6
CC(=O)c1ccccc1OCC(O)CN1CCN(C(c2ccccc2)c2ccccc2)CC1 (configuration not stated),1.8,-16.5%,-1.3%,1.1,-1.2%,-0.4
CCOC(=O)C1CCCN(c2c(N3CCOCC3)c(=O)c2=O)C1 (configuration not stated),0.8,19.6%,-0.4%,-0.4,4.3%,6.6
COc1ccc(NS(=O)(=O)c2cccc(C(=O)NNC(=O)CNC(=O)c3ccccc3)c2)cc1,·,-30.6%,2.7%,0.4,-2.0%,-28.1
CCCc1[nH]nc2c1C1(CCOC1C)C(C#N)=C(N)O2 (configuration not stated),3.1,-8.1%,-1.2%,-1.0,10.6%,4.4
CCOc1ccc(-n2c(SCC(=O)Nc3ccc(OC)cc3)nc3c(c2=O)SCC3)cc1,-4.0,-16.6%,-2.3%,1.7,-2.2%,-1.7
O=C(CCC(=O)Nc1cccc([N+](=O)[O-])c1)NCc1ccccc1,-9.1,4.7%,0.0%,0.4,7.6%,-7.2
O=C(NCc1cccs1)C(=O)NCC(c1ccco1)N1CCN(c2ccccc2)CC1 (configuration not stated),0.9,10.7%,0.8%,·,-9.1%,·
O=S(=O)(c1ccc2c(c1)OCCO2)N1CCC(n2nnc3cc(F)ccc32)CC1,0.7,2.5%,-2.0%,2.1,-10.7%,1.9
Brc1ccc(-c2n(-c3ccccn3)c3ccccc3[n+]2-c2ccccn2)cc1,?,6.5%,-1.1%,-0.2,-12.7%,-2.8
O=C(NCC(=O)N1CCN(S(=O)(=O)c2ccc3c(c2)OCCO3)CC1)c1ccccc1F,·,-12.2%,1.8%,0.8,-0.2%,13.9
CCOc1ccccc1NC(=O)C1CCN(C(=O)c2cccs2)CC1,-2.0,-1.9%[15.4 µM],·,0.2,-3.9%,22.3
CCn1c(NC2CCCCC2)nc2ccccc21,1.6,2.5%,-3.9%,2.0,9.7%,-6.5
C=CCNS(=O)(=O)CC12CCC(CC1=O)C2(C)C (configuration not stated),0.6,23.6%,0.3%,1.7,-0.1%,-10.9
Cc1cc(Cl)ccc1N=C1N=C(N)c2ccccc21,0.8,8.5%[15.4 µM],0.5%,-0.8,-25.7%,-9.8
COc1ccc(CNc2oc(COc3cccc(C)c3)nc2C#N)cc1,·,·,-12.8%,-0.6,·,-3.7
COc1ccccc1CCNS(=O)(=O)c1ccc(N2CCCCS2(=O)=O)cc1,·,·,-0.3%,-0.5,·,-0.6
CC(C)CC1(C)N=C(c2ccccc2)C(=S)N1 (configuration not stated),-0.2,-18.7%[15.4 µM],·,-0.8,-9.3%,-0.2
Cc1nnc(SCc2ccc(Cl)c(Cl)c2)s1,5.2,27.7%,-1.8%,2.1,-3.7%,-10.3
Cc1cc(C)n(-c2ccc3nncn3n2)n1,-0.7,-7.1%[15.4 µM],·,-1.0,9.9%,-6.8
CC1CC(C)CN(CCCNC(=O)CC2Oc3ccccc3NC2=O)C1 (configuration not stated),0.2,14.0%,-3.4%,-0.5,-2.7%,-9.2
CSc1ccc(-c2nc3cc(C)ccn3c2Nc2ccc(C)cc2)cc1,·,·,?,1.4,·,22.7

# (list continues)
compound,Menin MLL FP FL,gsp agonist,ClpP mod,TRPML1 agonist,gsp antag,TRPML1 blocker
c1coc(-c2nnc(NC3=NCCC3)o2)c1,0.7,16.4%,-10.5%,-0.1,-0.8%,2.6
Cn1c(C2=C(O)CN(c3ccccc3)C2=N)nc2ccccc21,1.3,2.2%[15.4 µM],·,0.0,2.4%,-7.0
O=C1NC2(CCc3ccccc32)C(=O)N1CCOc1ccc(Cl)cc1 (configuration not stated),1.4,1.8%,0.8%,-0.3,-11.3%,-23.6
COc1cc(/C=C/C(=O)Nc2nc3ccc(S(=O)(=O)NC(C)C)cc3s2)cc(OC)c1OC,4.2,-44.4%[inhibitor],-10.1%,0.1,8.8%,1.5
CC(C)[C@H](CN1CCC[C@H]1CN1C(N)=NC[C@@H]1Cc1ccccc1)N1C[C@@H](Cc2ccccc2)N(CCc2ccc(Cl)c(Cl)c2)C1=N,·,15.0%,-2.8%,-0.3,5.5%,-8.1
COc1ccc(N2CCN(S(=O)(=O)c3cn(C)cn3)CC2)cc1,-0.8,-1.1%,-2.6%,-0.7,6.9%,6.7
COc1ccc(Cl)c2sc(NC(=O)c3ccc(S(=O)(=O)N4CCCC4)cc3)nc12,·,·,-3.1%,0.4,·,11.8
CN(C(=O)c1cc2c(s1)-c1ccccc1S(=O)(=O)C2)c1ccccc1,1.3,-12.5%[15.4 µM],·,2.6,-6.6%,43.1
Cc1ccc(S(=O)(=O)C=CS(=O)(=O)c2ccc(C)cc2)cc1,·,2.5%,2.7%,6.3,·,24.1
CC(=O)c1ccc(NC(=O)N2CCCC(C(=O)c3ccc4c(c3)OCO4)C2)cc1 (configuration not stated),-4.7,?,-16.9%,4.2,-16.6%,-7.8

# From PubChem BioAssay
